# Assay outcomes as filed in PubChem.
# HCMV NEC inh = cytomegalovirus nuclear egress complex inhibition. HTRF UL50-UL53 interaction, normalized percent inhibition. inhibition, % (test concentration not listed). hit rate 0.15% among 190,000. AID 1918969;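 active = both replicates at 50% or more, plus weaker picks with an unusually low signal ratio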;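 note: stock transfer was 100 nL into about 20 µL; 0% = negative control wells and 100% = wells with untagged competitor protein; inactives centre near -12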
# GIV-Gai inh = inhibitors of GIV GBA-motif binding to rat Galpha-i3; P08753; Galpha-i3/FITC-GIV peptide fluorescence polarization, 90 min; stronger effect = lower value; scaled: aluminum fluoride 0%, vehicle 100%; percent of control (FP), % (test concentration not listed); hit rate 0.42% among 210,000;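 active = replicate mean at 85% of control or lower, very high polarization wells dropped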;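 note: wells of about 15 µL received 100 nL stock; the first replicate is given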
# Target sequence (P08753 whole entry, looked up): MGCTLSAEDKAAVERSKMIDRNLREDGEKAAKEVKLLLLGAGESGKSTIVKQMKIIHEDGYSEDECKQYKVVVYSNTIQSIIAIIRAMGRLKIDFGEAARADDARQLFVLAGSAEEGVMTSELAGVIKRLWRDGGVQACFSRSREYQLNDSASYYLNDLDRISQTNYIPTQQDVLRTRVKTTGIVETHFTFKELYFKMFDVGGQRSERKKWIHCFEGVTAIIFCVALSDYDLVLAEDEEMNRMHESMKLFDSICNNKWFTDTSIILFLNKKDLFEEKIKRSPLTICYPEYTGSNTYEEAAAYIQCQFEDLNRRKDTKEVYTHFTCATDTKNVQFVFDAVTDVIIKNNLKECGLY
# Sa growth inh = inhibitors of Staphylococcus aureus growth at 42 °C. hit rate 0.53% among 170,000. relative growth, % (no concentration beside the values). AID 720641. S. aureus RN4220 growth, OD600, 20 h; stronger effect = lower value;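 active = growth at 42 °C up to 50% and 20 or more points under that at 30 °C, or under 10% at both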;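 note: 300 nL library stock went into each well; scaled to the means of positive and negative controls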
# Sa growth inh second temp = recorded beside Sa growth inh, whose call it bears; relative growth, %; measured here: growth at 30 °C;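 optical density after 20 h as mean of two plates; 100% = untreated growth and lower means inhibition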
# Starred values were filed as active, the others as inactive; · = not tested or not shown.
cpd | structure | Sa growth inh second temp | Sa growth inh | HCMV NEC inh | GIV-Gai inh
1 | Cc1cc(NC(=O)CN2CCc3ccccc3C2)nc2c1c(=O)oc1ccccc12 | 92 | 104 | -3 | 103
2 | COc1cc(-c2nnc(COC(=O)C3(c4ccccc4)CC3)o2)cc(OC)c1OC | 92 | 102 | -16 | ·
3 | Cc1cc(-n2nc(-c3cccc(C(F)(F)F)c3)cc2N)nc2c1c(C)nn2C | 82 | 103 | -3 | 98
4 | CCN(Cc1ccccc1)Cc1c(O)ccc2oc(C)c(C(=O)NC3CCCC3)c12 | 67 | 87 | -13 | 99
5 | CCN(C(=O)c1cn(-c2ccccc2)nc1-c1cccs1)c1ccccc1 | 86 | 72 | -30 | ·
6 | FC(F)(F)c1cc(-c2ccco2)nc(N2CCCC2)n1 | 99 | 111 | -2 | 106
7 | NC(=O)CN1C(=O)c2cccc3cccc1c23 | 88 | 84 | -50 | ·
8 | CCC(C)n1c(=O)[nH][nH]c1=S (configuration not stated) | 79 | 78 | 2 | 98
9 | COc1ccc(CCNc2nccn(-c3ccc(C)c(C)c3)c2=O)cc1OC | 94 | 122 | · | 105
10 | CCc1cc2c(N(CC)CC)nc(C)nc2s1 | 60 | 76 | · | 106
11 | COC(=O)c1ccc(CN2C(=O)NC(Cc3c[nH]c4ccccc34)C2=O)cc1 (configuration not stated) | 85 | 98 | 1 | ·
12 | N#CC(C#N)=C(N)/C(C#N)=C/c1ccco1 | 64 | 90 | -69 | 112
13 | O=C(CSc1ncc(CO)n1Cc1ccccc1)Nc1nc2ccccc2s1 | 102 | 104 | · | 102
14 | Cc1ccc2cc(-c3noc(CCC(=O)NCC4CCCO4)n3)c(=O)[nH]c2c1 (configuration not stated) | · | · | -20 | 108
15 | O=C(Cn1cnc2c(nc3n2CCCCC3)c1=O)N1CCOCC1 | · | · | 5 | 96
16 | CC(=O)Nc1ccc(NC(=O)c2ccc(N3C(=O)C4CC(C)=CC(C)C4C3=O)cc2)cc1 (configuration not stated) | · | · | -9 | 107
17 | COc1ccc(-n2ccn(CC(=O)Nc3ccc(C)cc3C)c(=O)c2=O)cc1 | 89 | 101 | -32 | 95
18 | COc1ccc(OC)c(Cc2nc3cc(C)c(C)cc3[nH]c2=O)c1 | · | · | -23 | 99
19 | CCCn1c(CN2CCC(C)CC2)nc2c1c(=O)n(C)c(=O)n2C | · | · | -31 | 100
20 | COc1ccc(C(=O)NCc2nnc(SCc3nc4ccccc4c(=O)[nH]3)n2C)cc1 | 100 | 108 | -1 | 106
21 | COCCn1c(SCC(=O)c2ccc(F)cc2)nc2cc(C(=O)NC3CCCC3)ccc2c1=O | 83 | 95 | · | 100
22 | CCc1ccccc1NC(=O)C(CC)n1nc(-c2ccc(OC)cc2)ccc1=O (configuration not stated) | 91 | 113 | -6 | 101
23 | COc1ccc(NC(=O)C(Cc2ccccc2)n2cccc2)cc1 (configuration not stated) | 78 | 92 | -1 | 99
24 | CCOC(=O)c1ccc(NC(=O)CSc2nnc3c4ccccc4n(CC)c3n2)cc1 | 83 | 100 | -87 | 105

# Complete entries as entered above. Order of values: Sa growth inh second temp | Sa growth inh | HCMV NEC inh | GIV-Gai inh
# COc1ccc(OC)c(Cc2nc3cc(C)c(C)cc3[nH]c2=O)c1 across the screens: · | · | -23 | 99
# CCc1ccccc1NC(=O)C(CC)n1nc(-c2ccc(OC)cc2)ccc1=O (configuration not stated) across the screens: 91 | 113 | -6 | 101
# COc1ccc(C(=O)NCc2nnc(SCc3nc4ccccc4c(=O)[nH]3)n2C)cc1 across the screens: 100 | 108 | -1 | 106
# COc1ccc(-n2ccn(CC(=O)Nc3ccc(C)cc3C)c(=O)c2=O)cc1 across the screens: 89 | 101 | -32 | 95
# COc1ccc(NC(=O)C(Cc2ccccc2)n2cccc2)cc1 (configuration not stated) across the screens: 78 | 92 | -1 | 99

# More results:
cpd | structure | Sa growth inh second temp | Sa growth inh | HCMV NEC inh | GIV-Gai inh
25 | COc1ccc(C(CNC(=O)c2oc3ccc(C)cc3c2C)N2CCCCC2)cc1 (configuration not stated) | 95 | 108 | -5 | 108
26 | COc1ccc(NC(=O)CN2C(=O)C3(SCC(=O)N3c3cccc(OC)c3)c3ccccc32)cc1 (configuration not stated) | 92 | 97 | · | 105
27 | COc1ccc(C)cc1N(C)C(=O)c1coc(=O)c2ccccc12 | 82 | 105 | 0 | 98
28 | O=c1[nH]nc(N2CCCC2)c2ccccc12 | · | · | -42 | 104
29 | COc1ccc(N2C(=O)CCS2(=O)=O)cc1S(=O)(=O)Nc1ccc(Br)cc1 | · | · | -3 | 102
30 | Cc1ccc(C)c(S(=O)(=O)c2cn(C)c3cc(N4CCCCC4C)c(F)cc3c2=O)c1 (configuration not stated) | 98 | 139 | · | 108
31 | COC(=O)c1cc(=O)n2c(-c3cccs3)nnc2s1 | 98 | 110 | -18 | 104
32 | O=C(Nc1ccccc1)c1csc(-c2ccccc2)n1 | · | · | -13 | 106
33 | Cc1cccc(NC(=O)CSc2ncnc3c2oc2ccccc23)c1 | 71 | 98 | -4 | 105
34 | O=C(OC1c2ccccc2C(=O)N1Cc1ccccc1)c1cccc(Cl)c1 (configuration not stated) | 92 | 106 | · | 100
35 | CCn1cc(C(=O)NCCc2ccc(C)cc2)c(=O)c2cc(S(=O)(=O)N3CCC(C)CC3)ccc21 | 85 | 95 | -10 | 101
36 | CC1CCC(N2CC(=O)N(Cc3ccc4c(c3)OCO4)C(c3ccc(F)cc3)C2=O)CC1 (configuration not stated) | 88 | 98 | -20 | 102
37 | CCN(Cc1ccc(Br)s1)C(=O)CSc1nnc(C2CC2)n1C1CC1 | 96 | 109 | -4 | ·
38 | O=C1CC(c2ccc(F)cc2)=Nc2ccccc2N1Cc1ccc(Cl)cc1 | · | · | -22 | 99
39 | C[C@@H](NC(=O)CN(c1ccccc1)S(=O)(=O)N(C)C)c1ccccc1 | 92 | 109 | -9 | 107
40 | CC1CCN(c2cc(N(C)C)c3noc4c3c2C(=O)c2ccccc2-4)CC1 | 15 | 27 | · | 227
41 | CC1=C(C#N)C(c2ccccc2)C2=C(CC(c3ccc(Br)cc3)CC2=O)O1 (configuration not stated) | 114 | 120 | -10 | ·
42 | COC(=O)c1c(NC(=O)C2Cc3ccc(C)cc3C(=O)O2)sc2c1CCC2 (configuration not stated) | · | · | 0 | 106
43 | Cc1ccc(-n2ncc(C(=O)Nc3ccc(Br)cc3)c2C2CCNCC2)cc1 | · | · | 20 | 102
44 | CC(C)N(CCCNC(=O)CN1C(=O)CC(C)(C)S(=O)(=O)c2ccccc21)Cc1ccccc1 | · | · | -22 | 94
45 | COCCNC(=O)c1nn(-c2ccc(C)cc2)c(=O)c2c1c1ccccc1n2C | 90 | 101 | -3 | 98
46 | C=CCn1c(SCC(=O)Nc2c(C)n(C)n(-c3ccccc3)c2=O)nnc1-c1ccncc1 | 90 | 113 | 2 | ·
47 | Cc1ccc(NC(=O)Cn2c(=O)ccc3cc(S(=O)(=O)N4CCC(C)CC4)ccc32)cc1Cl | 80 | 97 | · | 99
48 | COc1ccccc1CNc1nc2nc(C)c(Cl)c(C)n2n1 | 99 | 93 | 9 | 109

# Next section (7 carried over from the part before).
cpd | structure | Sa growth inh second temp | Sa growth inh | HCMV NEC inh | GIV-Gai inh
42 | COC(=O)c1c(NC(=O)C2Cc3ccc(C)cc3C(=O)O2)sc2c1CCC2 (configuration not stated) | · | · | 0 | 106
43 | Cc1ccc(-n2ncc(C(=O)Nc3ccc(Br)cc3)c2C2CCNCC2)cc1 | · | · | 20 | 102
44 | CC(C)N(CCCNC(=O)CN1C(=O)CC(C)(C)S(=O)(=O)c2ccccc21)Cc1ccccc1 | · | · | -22 | 94
45 | COCCNC(=O)c1nn(-c2ccc(C)cc2)c(=O)c2c1c1ccccc1n2C | 90 | 101 | -3 | 98
46 | C=CCn1c(SCC(=O)Nc2c(C)n(C)n(-c3ccccc3)c2=O)nnc1-c1ccncc1 | 90 | 113 | 2 | ·
47 | Cc1ccc(NC(=O)Cn2c(=O)ccc3cc(S(=O)(=O)N4CCC(C)CC4)ccc32)cc1Cl | 80 | 97 | · | 99
48 | COc1ccccc1CNc1nc2nc(C)c(Cl)c(C)n2n1 | 99 | 93 | 9 | 109
49 | COc1ccc(-c2coc3ccccc3c2=O)cc1 | 81 | 91 | -16 | 102
50 | O=C(O)Cn1c(O)c(C=Nc2ccccc2)sc1=S | · | · | -128 | 105
51 | O=C1Oc2ccccc2C(=O)/C1=C/N1CCCCC1 | 106 | 102 | 0 | ·
52 | COc1cc(C=Nc2cc(C)ccc2C)cc(OC)c1OC | 85 | 95 | -6 | ·
53 | Cc1csc(NC(=O)COc2ccccc2-c2nc(C(C)C)no2)n1 | · | · | -18 | 101
54 | O=S(=O)(c1ccc(Cl)cc1)c1nnn2c1nc(NC1CCCCC1)c1sccc12 | 79 | 108 | · | 99
55 | COc1ccc(CCNC(=O)c2c(O)nc3c(C)cccn3c2=O)cc1OC | 91 | 102 | -32 | 97
56 | COc1cccc(NC(=O)Cn2c(=O)n(CC(=O)NCCc3ccccc3)c(=O)c3ccccc32)c1 | 70 | 103 | 2 | 104
57 | CCN1C(=O)/C(=C2\SC(=Nc3cccc(Cl)c3C)NC2=O)c2ccccc21 | 94 | 118 | -9 | 106
58 | COC(=O)c1ccc2c(c1)N(CC#N)C(=O)CS2 | 89 | 140 | · | 101
59 | CCn1cc(C(=O)NCc2ccc(F)cc2)c(=O)c2cc(S(=O)(=O)N(C)C)ccc21 | 95 | 102 | -25 | 101
60 | CCCc1cc(NCc2ccccn2)n2ncc(-c3ccccc3)c2n1 | · | · | -24 | 109
61 | COc1ccc(Cl)cc1N1C(=O)[C@@H]2CCCN2[C@H]1c1ccc(N(C)C)cc1 | · | · | -72 | 98
62 | CC1CCCC(NC(=O)COC(=O)c2n[nH]c3ccccc23)C1C (configuration not stated) | 89 | 112 | -28 | ·
63 | O=C(CN1C(=O)C2C3C=CC(C3)C2C1=O)N1CCc2ccccc2C1 (configuration not stated) | 89 | 111 | 1 | ·
64 | Cc1cc(C(=O)NNc2ccc(C(C)C)cc2)n(C(C)(C)C)n1 | 97 | 99 | -16 | 110
65 | CC1CC(C)CN(C(=O)Cn2cnc3c2c(=O)n(C)c(=O)n3C)C1 (configuration not stated) | 80 | 103 | 16 | 99
66 | COc1ccccc1NC(=O)C1=C(C)Nc2ncnn2C1c1ccccn1 (configuration not stated) | 87 | 119 | -22 | 103
67 | Cc1ccc2c(c1C)NC(C(=O)O)C1CC=CC21 (configuration not stated) | 53 | 114 | -1 | 164
68 | O=C(Cn1nc2c(N3CCOCC3)nc3ccccc3n2c1=O)NC1CCCC1 | · | · | -6 | 107
69 | COc1ccc(NC(=O)Cc2ccc3nc(NC(C)=O)sc3c2)cc1 | · | · | -4 | 103
70 | COc1ccc(OC)c(CNC(=O)c2cc3c(-c4ccc(OC)c(OC)c4)nn(C)c3s2)c1 | 94 | 119 | -14 | 106
71 | N=C1C(c2nc3ccccc3s2)=C(O)CN1/N=C/c1ccc(-c2ccc(S(=O)(=O)Nc3ncccn3)cc2)o1 | 89 | 111 | -8 | ·
72 | COc1ccc(/C=C(\C#N)c2nc(-c3cc4c(ccc5ccccc54)oc3=O)cs2)cc1OC | · | · | -14 | 105
73 | COC(=O)c1c(C)oc2ccc(N(C(=O)c3ccncc3)S(=O)(=O)c3ccc(Br)cc3)cc12 | 113 | 100 | · | 105
74 | COc1cc([N+](=O)[O-])ccc1NC(=O)Cn1c2ccccc2c(=O)c2ccccc21 | · | · | -30 | 103
75 | FC(F)(F)C1(C(F)(F)F)N=C(c2cccnc2)N(c2ccccc2)N1 | 87 | 97 | · | 95
76 | O=C(O)CC(CC(=O)Nc1ccc(I)cc1F)c1ccccc1 (configuration not stated) | 91 | 103 | -10 | 101
77 | CCOC(OCC)P(=O)(c1ccccc1)c1ccccc1 | 117 | 99 | 3 | 99
78 | CCOC(=O)c1cnc2cc(C(F)(F)F)ccc2c1N1CCN(c2ccc(F)cc2)CC1 | 99 | 92 | 6 | 98
79 | c1nc2c3sc4nc(N5CCOCC5)c5c(c4c3ncn2n1)CCC5 | 102 | 97 | 14 | 105
80 | CCOC(=O)C1CCN(C(=O)c2ccc(C)cc2)CC1 | 111 | 71 | 13 | 97
81 | CCOc1ccc(-c2cc(C)n3nc(C(=O)Nc4cc(OC)c(Cl)cc4OC)cc3n2)cc1 | · | · | -11 | 101
82 | c1ccc(-c2nn[nH]n2)cc1 | 86 | 131 | -24 | ·
83 | O=C(Nc1ccc(F)cc1)N1CCSc2ncccc21 | · | · | 4 | 101
84 | O=C1OC(c2ccccc2)=N/C1=C\c1cn(-c2ccccc2)nc1-c1cccs1 | 97 | 97 | 21 | 107
85 | OCCNc1ncnc2ccccc12 | 97 | 100 | · | 102

# Not a hit list. Share with any hit: about 0.8%.
